Compound activity from PubChem BioAssay.
Rango complex inh – Rango-importin beta binding inhibition | Q14974 | hit rate 0.031% among 340,000 | Potency, µM (titrated, usually from 92.2 µM), for inactives: top-dose inhibition of complex formation | Rango CFP/YFP FRET sensor + importin beta, 45 min; active = rising FRET ratio curve, often small or poorly fitted; inconclusive = mostly compound fluorescence or quenching in the first reads; inactive = flat curves in all reads;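 also: potency is read from the fitted curve at half-maximal effect; 0% = DMSO wells and 100% = buffer wells lacking importin beta; nearly all actives have a fitted effect of over 15% in size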
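Inhibition scored from the CFP 486 nm/YFP 530 nm FRET ratio 45 min after adding 0.125 microM importin beta to 50 nM Rango biosensor preincubated 5 min with compound (room temperature, PBS with DTT, Tween-20, BSA). No-importin wells as positive control.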
GLA inh pH 4.5 – alpha-galactosidase A (human) inhibition, pH 4.5; 230,000 tested, under 10 active; P06280; purified enzyme, 4-MU-alpha-Gal fluorescence, pH 4.5; activity change, negative = inhibition, % at 105 µM; inconclusive = small, poorly fitted or top-dose-only inhibition, or a rising curve; inactive = flat fitted curve, though single readings scatter; no compound was filed as active;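 also: 0% = full activity with enzyme and -100% = basal without enzyme; dose as in the result columns while the protocol names 77 µM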
Target sequence (P06280 whole entry, looked up): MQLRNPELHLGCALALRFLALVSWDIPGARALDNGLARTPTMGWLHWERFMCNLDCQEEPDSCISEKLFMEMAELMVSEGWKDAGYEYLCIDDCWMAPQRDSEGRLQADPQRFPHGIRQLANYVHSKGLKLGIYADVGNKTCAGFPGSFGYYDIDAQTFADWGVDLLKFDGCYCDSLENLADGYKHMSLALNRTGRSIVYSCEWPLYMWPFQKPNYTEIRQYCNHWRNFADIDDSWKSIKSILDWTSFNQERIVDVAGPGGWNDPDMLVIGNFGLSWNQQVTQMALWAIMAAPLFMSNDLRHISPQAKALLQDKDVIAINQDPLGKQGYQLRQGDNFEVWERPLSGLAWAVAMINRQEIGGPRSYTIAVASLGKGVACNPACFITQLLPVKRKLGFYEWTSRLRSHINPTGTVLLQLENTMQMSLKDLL
Rango dissoc inh – inhibitors of RanGTP-induced Rango-importin beta complex dissociation. Biochemical FRET Rango-importin beta, RanGTP-induced dissociation. hit rate 0.071% among 340,000. Potency, µM (titrated, usually from 46.1 µM), for inactives: at the highest dose activity change, negative = inhibition. O95149+P62826; active means falling FRET ratio curve, often poorly fitted, with flat reads before Ran was added; inconclusive means other falling curves, or compound fluorescence or quenching; inactive means flat or rising ratio curve;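 also: potency is read from the fitted curve at half-maximal effect; % of control where 0% means no effect; nearly all actives have a fitted effect of over 45% in size; -100% = wells without RanGTP and RCC1; the record marks most hits as doubtful in a second field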
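Rango (0.1 uM)–importin beta (0.25 uM) complex; RanGTP-RCC1 trigger; 45 min RT; CFP/YFP FRET read.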
miR-21 reporter – miR-21 reporter, rising signal | Potency, µM (titrated, usually from 38.3 µM), for inactives: at the highest dose reporter change, positive = more light | HeLa miR-21 FLuc reporter, luciferase, 48 h | 340,000 tested, under 10 active | AID 2288; active = well fitted rising curve with a large enough effect; inconclusive = small, poorly fitted or top-dose-only effect; inactive = no such curve, though single readings can be large or run the other way;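 also: % of control where 0% means no effect; miR-21 action dims this reporter so a rising signal means less miR-21 action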
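HeLa cells stably expressing CMV-driven firefly luciferase with a downstream miR-21 binding sequence, endogenously expressing miR-21, were treated with titrations (up to about 40uM final) for 48 hours at 37 degree Celsius. Luciferase luminescence was read after lysis.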
An asterisk follows results filed as active; u = inconclusive; x = no result given; & = joins results of further samples.

Rango complex inh	GLA inh pH 4.5	Rango dissoc inh	miR-21 reporter	SMILES
-2.2%	5	10%	-1%	CCOc1ccccc1C1CC(=O)NC2=C1C(=O)CC(C)(C)C2 (stereo not drawn)
-0.2%	-3	4%	-8%	O=c1[nH]c(=O)n(C2CCCO2)cc1Br (stereo not drawn)
1.8%	x	0%	-3%	COc1ccc(N2CCN(C(=O)c3cc(C)oc3C)CC2)cc1
-0.4%	3	23%	-50%	COc1cccc2cc(C(=O)OCC(=O)NCc3ccc4c(c3)OCO4)c(=O)oc12
0.5%	x	6%	0%	CCc1ccccc1N1C(=O)C2C3C=CC(CC3)C2C1=O (stereo not drawn)
u	x	-9%	x	CCN(CC)CCNC(=O)C(=O)NCC1OCCN1S(=O)(=O)c1cccs1 (stereo not drawn)
13%	-9	-7%	-45%	Clc1ccc(/C=N/NC2=Nc3cccc4cccc2c34)cc1
3.6%	12	-1%	-31%	Cc1ccc(C(=O)CNc2cccc(Cl)c2)cc1
-0.2%	-2	2%	0%	C/C(=C/C(=O)N1CCc2ccccc21)C(=O)O
4.9%	x	-3%	-8%	CCOC(=O)c1c(S(=O)(=O)N(C)C2CCCCC2)c(C)n(C)c1C
-2.0%	x	-12%	x	CCOc1ccc(NC(=O)COc2ccc(C(=O)N3CCC(C(N)=O)CC3)cc2OC)cc1
-0.2%	x	19%	x	N#CCCN(C(=O)COC(=O)CNC(=O)C12CC3CC(CC(C3)C1)C2)c1ccccc1
-3.6%	-15	-9%	-12%	COc1ccc(-n2cc(CN3CCC(OC)CC3)c(-c3cccc(F)c3)n2)cc1
-2.3%	-4	-8%	15%	Fc1cccc(NC(=S)NCc2ccccc2Cl)c1
0.1%	-2	8%	-6%	Cc1ccc(/C=C/C(=O)O)cc1S(=O)(=O)NCCCO
-3.9%	x	-3%	8%	CCOc1ccc(N2C(=O)CC(Cc3cc(C)cc(C)c3)C2=O)cc1 (stereo not drawn)
0.2%	x	8%	7%	Cc1cc(C)cc(N(CCC#N)C(=O)CN2C(=O)NC3(CCCC3)C2=O)c1
-2.6%	4	-2%	1%	CC(=O)Nc1cccc(NC(=O)C2CCCN2C(=O)Nc2cccc(F)c2)c1 (stereo not drawn)
4.4%	x	29%	2%	COC(=O)c1ccccc1NC(=O)c1onc(C)c1Cl
-4.5%	x	1%	3%	Cc1cccc(N(Cc2ccccc2)C(=O)c2ccccc2S(C)(=O)=O)c1
1.3%	-6	1%	1%	Cc1cc(Oc2ccccc2)nc(SCC(=O)Nc2ccc(Cl)cc2Cl)n1
5.8%	x	18%	4%	COc1ccc(Br)cc1C(=O)NC(=S)Nc1c(C)n(C)n(-c2ccccc2)c1=O
5.5%	x	4%	x	CN1CCN(CC(O)COc2ccc(S(=O)(=O)N3CCOCC3)cc2)CC1 (stereo not drawn)
u	11	9%	0%	COc1cc(NC(=O)Cc2cccs2)c(C(=O)O)cc1OC

Rewritten with two lines to a compound: entries from further up.
Values in the order: Rango complex inh | GLA inh pH 4.5 | Rango dissoc inh | miR-21 reporter
- Cc1cc(C)cc(N(CCC#N)C(=O)CN2C(=O)NC3(CCCC3)C2=O)c1
    0.2% | x | 8% | 7%
- CC(=O)Nc1cccc(NC(=O)C2CCCN2C(=O)Nc2cccc(F)c2)c1 (stereo not drawn)
    -2.6% | 4 | -2% | 1%
- COC(=O)c1ccccc1NC(=O)c1onc(C)c1Cl
    4.4% | x | 29% | 2%
- Cc1cccc(N(Cc2ccccc2)C(=O)c2ccccc2S(C)(=O)=O)c1
    -4.5% | x | 1% | 3%
- Cc1cc(Oc2ccccc2)nc(SCC(=O)Nc2ccc(Cl)cc2Cl)n1
    1.3% | -6 | 1% | 1%

More results follow:
Rango complex inh	GLA inh pH 4.5	Rango dissoc inh	miR-21 reporter	SMILES
-1.4%	x	5%	-2%	CC(C)C(=O)Nc1ccc(NC(=O)c2ccc3c(c2)OCO3)cc1
0.4%	x	1%	-46%	CC(=O)Nc1ccccc1C(=O)C(=O)Nc1ccccc1
3.1%	0	5%	5%	Cc1cccc(C)c1NC(=O)CN(C)C(=O)/C=C/c1cccs1
1.9%	5	6%	-1%	CSCCC(NS(=O)(=O)c1cc(C(=O)O)ccc1Cl)C(=O)O (stereo not drawn)
-2.2%	1	-9%	1%	Cc1nn(C)c(C)c1/C=C/C(=O)O
-5.7%	6	-14%	-1%	Cc1c(Cl)cccc1NC(=S)Nc1ccc2[nH]c(=O)[nH]c2c1
1.2%	x	-1%	x	Cc1ccc(C(=O)C2CC2)cc1C
0.3%	7	2%	-61%	Cc1cc(C)n2c(nc3ccccc32)c1C(=O)NN
0.0%	-2	3%	-3%	COc1cccc(/C=N/n2c(-c3cc(C)[nH]n3)n[nH]c2=S)c1OC
-0.1%	0	-6%	-5%	O=C(COc1ccc(Cl)cc1Cl)NCC(=O)N/N=C/c1c[nH]c2ccccc12
0.2%	5	0%	-6%	O=C1CC(N2CCN(c3ccc(S(=O)(=O)N4CCCC4)cc3)CC2)C(=O)N1c1ccc(F)cc1 (stereo not drawn)
1.6%	x	0%	x	O=C(c1cccc(-n2cccc2)c1)N1CCN(S(=O)(=O)c2ccccc2Br)CC1
u	0	u	-1%	COc1ccccc1N1C(C)=CC(=C(C#N)c2nc3ccccc3s2)C=C1C
4.9%	x	1%	-2%	CC1CCN(Cc2c(C(=O)N/N=C/c3ccc(C(F)(F)F)cc3)nnn2-c2nonc2N)CC1
7.6%	2	-3%	-7%	CC(C)CCNC(=O)CNC(=S)N(CCCN1CCOCC1)Cc1cccs1
0.1%	-7	23%	-1%	CCC(C)NS(=O)(=O)c1ccc(OCC(=O)NCc2ccc3c(c2)OCO3)cc1 (stereo not drawn)
-2.7%	x	-2%	3%	Cc1cccc(C(C(=O)NC2CCCC2)N(C(=O)c2csnn2)C2CCCC2)c1 (stereo not drawn)
0.6%	x	14%	3%	Cn1cc(CN2CCN(CCO)CC2)c(-c2ccc(Oc3ccccc3)cc2)n1
0.1%	8	-4%	-4%	COc1ccc(C(=O)NCc2cn3cccc(C)c3n2)cc1OC
0.2%	x	0%	1%	CC1CC(C)CN(S(=O)(=O)N2CCCC(C(=O)NCCc3ccc(Cl)cc3)C2)C1 (stereo not drawn)
-4.5%	-19	-15%	-11%	O=C(NN1C(=O)/C(=C/C=C/c2ccccc2)SC1=S)c1ccncc1
-2.6%	x	-6%	x	O=C(COC(=O)CC1CCCC1)Nc1ccc(Cl)cc1
x	11	x	-1%	CCCC(=O)Nc1c(-c2cccs2)c(=O)c2ccccc2n1CC
-0.4%	6	12%	-7%	Cc1oc(-c2cc(F)ccc2F)nc1CN1CCN(c2cnccn2)CC1
5.1%	0	1%	-6%	O=C(c1ccc2nc(N3CCCCC3)sc2c1)N1CCN(Cc2ccc3c(c2)OCO3)CC1
1.2%	4	5%	0%	Cc1cc([N+](=O)[O-])ccc1NC(=O)C[n+]1ccc(N(C)C)cc1
-2.1%	x	-4%	x	CC(=O)c1nn(-c2ccccc2)cc1C(=O)c1ccc(C)cc1
-0.3%	9	16%	-5%	Cc1ccc(-n2c(SCC(=O)NC3CCCCC3)nc3c(c2=O)SCC3)cc1
-0.6%	2	12%	-5%	COC(=O)c1sc2nc(N3CCCCC3)c3c(c2c1N)CCCC3
-2.6%	2	-7%	3%	O=C(O)CC(Cn1cnnn1)c1ccccc1 (stereo not drawn)
-0.3%	-5	36%	-10%	CCCOc1ccc(NC(=O)CC2C(=O)N(CC)C(=S)N2CCNC(C)=O)cc1 (stereo not drawn)
2.5%	-3	0%	0%	O=C(c1ccccc1)c1cc[n+]([O-])cc1
8.0%	-3	-9%	-9%	C=CCN(C(=O)Cn1c(C(=O)OC)cc2oc(C)cc21)c1ccccc1
-3.8%	-2	-13%	-26%	Cc1ccc(-c2nc(CN(C)C(C3CC3)C3CC3)c(C)o2)cc1
-7.0%	2	20%	0%	Cn1nnnc1SCC(=O)N1CCN(C(=O)c2ccco2)CC1
-1.4%	x	-7%	x	COc1ccccc1-c1nnc(SCC(=O)Nc2oc(C)c3c(C)n[nH]c(=O)c23)n1C
0.3%	1	8%	-2%	COc1ccc(S(=O)(=O)NCCSCc2cccs2)cc1
-0.5%	-13	-7%	-7%	O=C(CNc1cccc2ccccc12)N/N=C/c1ccc(C(=O)O)cc1
1.2%	-5	1%	-1%	COc1ccc(C2=C(C=Nc3c(C)n(C)n(-c4ccccc4)c3=O)C(c3ccccc3C)c3ccccc3O2)cc1OC (stereo not drawn)
-1.8%	x	-7%	1%	Cc1ccc(-n2ncc(C(=O)N3CCN(C(=O)c4ccco4)CC3)c2C2CCN(C(=O)OC(C)(C)C)CC2)cc1C
-0.9%	x	-14%	x	CC(=O)c1ccc(OCC(=O)Nc2ccc(N3CCCCC3)cc2)cc1
0.7%	12	-5%	-20%	O=C(c1ccccc1)c1ccc(OCCCN2CCCC2)cc1
5.1%	2	-16%	-1%	C=CCNC(=O)NC(=O)COC(=O)c1ccccc1Sc1ccc(C(F)(F)F)cc1[N+](=O)[O-]
5.8%	4	15%	-1%	O=C(NNc1cccc(Cl)n1)c1ccccc1CC[N+](=O)[O-]
0.0%	x	-2%	0%	COC(=O)C1CN(C(=O)COc2ccc(Cl)c(C)c2)c2ccccc2O1 (stereo not drawn)
4.5%	-3	-20%	4%	CC(C)(O)C#Cc1ccc(C(=O)N2CCN(c3ccc(F)cc3)CC2)cc1
u	x	33%	x	OCC[C@@H]1C[C@@H](O)[C@H](O)[C@@]2(CCCCO2)O1
1.7%	3	12%	-1%	COC(=O)c1sc2ccccc2c1-n1cccc1C(=O)C(=O)Nc1ccc(Cl)cc1
-1.3%	x	-9%	3%	COc1cc(OC)cc(C(=O)N2CCC(C(=O)N3CCOCC3)CC2)c1
3.7%	8	3%	-2%	C=CCNC(=S)N/N=C(\C)c1ccc(-n2ccnc2)cc1
3.7%	-7	14%	-2%	Cc1ccn2c(CN(C)CCn3nc(C)cc3C)c(C(=O)N3CCCCCC3)nc2c1
0.4%	12	4%	3%	Cc1cccc(/C(N)=N/OC(=O)COc2ccc(Cl)c(C)c2)c1
10%	x	2%	4%	Nc1nc2ccccc2[nH]1
-2.2%	-13	20%	-30%	COc1ccc2nc(Nc3ccccc3OC)sc2c1
-1.4%	-12	-9%	15%	OC1CCCN(Cc2ccc3ccc4cccc5ccc2c3c45)C1 (stereo not drawn)
3.1%	-3	-15%	-7%	C=CCc1cc(/C=N/n2cnnc2)cc(OCC)c1O

(listing goes on)
Rango complex inh	GLA inh pH 4.5	Rango dissoc inh	miR-21 reporter	SMILES
1.4%	x	0%	x	Cc1c(NC(=O)CSc2nncn2-c2ccccc2)c(=O)n(-c2ccccc2)n1C
u	-4	u	-5%	Cc1noc(/C=C/N(C)C)c1S(=O)(=O)N1CCCC(C(=O)NC(C)c2ccccc2)C1 (stereo not drawn)
1.0%	-3	-12%	-3%	CC(=O)Oc1ccc(-c2cccc(C(=O)NCC(=O)O)c2)cc1
-0.5%	x	25%	-1%&-4%	COc1cccc(NC(=O)CN2C(=O)COc3ccc(S(=O)(=O)N4CCOCC4)cc32)c1
-3.8%	-1	1%	-9%	COc1cc(C(C)=O)ccc1OCC(O)CN(CCO)Cc1ccccc1 (stereo not drawn)
-0.2%	0	26%	-7%	CC(=O)c1nc(N2C(=O)CC(Cc3cc(C)cc(C)c3)C2=O)sc1C (stereo not drawn)
1.2%	-5	2%	-9%	O=C(CN1C(=O)C2CC=CCC2C1=O)NCc1ccc2c(c1)OCO2 (stereo not drawn)
2.2%	-6	-3%	-2%	O=C(O)CC(C(=O)O)c1cn(Cc2ccccc2)c2ccccc12 (stereo not drawn)
-4.7%	x	u	-3%	CCCn1c2ccccc2c2cnn(CC(=O)NC3CCN(Cc4ccccc4)CC3)c(=O)c21
1.8%	5	14%	17%	C/C(=N\N=C(N)N)c1ccc(Cl)cc1
1.9%	x	-2%	-6%	CSCc1ccc(C(=O)N2CCCC(Nc3ccc(F)cc3)C2)o1 (stereo not drawn)

In the list so far, these contain a CF3 group.
Rango complex inh	GLA inh pH 4.5	Rango dissoc inh	miR-21 reporter	SMILES
4.9%	x	1%	-2%	CC1CCN(Cc2c(C(=O)N/N=C/c3ccc(C(F)(F)F)cc3)nnn2-c2nonc2N)CC1
5.1%	2	-16%	-1%	C=CCNC(=O)NC(=O)COC(=O)c1ccccc1Sc1ccc(C(F)(F)F)cc1[N+](=O)[O-]

An excerpt, so the mix of outcomes need not match the whole.
